Bioassay records as filed in PubChem BioAssay.
Beta cell apopt: blocks beta cell apoptosis | INS-1E cytokine-induced death, ATP luminescence, 48 h; percent of positive-control rescue, neutral wells zero | protection from apoptosis, % (no concentration beside the values) | actives 0.8% (n = 300,000) | AID 435005;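 active = all replicates at 75% or more, or half of them and the mean; inconclusive = half reach 75% but not the mean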;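 also: 0% = cytokine-treated negative control wells and 100% = positive control rescue; higher means more ATP so stronger rescue from cytokine killing; wells of about 40 µL received 100 nL stock; the first replicate is given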
Calb FLC: affects C. albicans growth with fluconazole | C. albicans CaCi-2 (fluconazole-resistant clinical isolate) + fluconazole, Alamar Blue growth, 48 h | growth inhibition, % (no concentration beside the values) | actives 0.57% (n = 300,000) | AID 1979;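 active = most replicates above 75%; inconclusive = exactly half above 75%; inactive = most below 75%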;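 also: all wells also contain fluconazole at 8 µg/ml as a sub-toxic cotreatment; 0% = median of DMSO wells and 100% = median of geldanamycin control wells; wells of about 8 µL received 7.5 nL stock; the first replicate is given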
Bfl-1 A1 inh: inhibitors of the anti-apoptotic protein A1, read as caspase activation; actives 0.066% (n = 330,000); AID 2462; MEF A1-2A-BIM cells, Caspase-Glo 3/7 luminescence, 3 h; percent of clofoctol response, vehicle zero; caspase activation, % (test concentration not listed);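 active = over half of replicate activation scores above 10%, or exactly half above 10 with the replicate mean above 10; inconclusive = replicate mean below 10 yet half the replicates above 10; inactive = over half of replicates below 10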;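 also: wells of about 30 µL received 50 nL stock; many hits fall short of the cut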
T cruzi repl: T. cruzi replication inhibition; actives 1.4% (n = 300,000); T. cruzi beta-gal in NIH3T3, luminescence, 90 h; inhibition, % (no concentration beside the values);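 active = mean inhibition across valid replicates above about 55%, limit read from the data; inconclusive = mean below that limit but half or more replicates reach it; inactive = mean below it, under half of replicates reach it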;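 also: signal also drops with host cell toxicity which is not excluded here; 0% = plate median of DMSO wells and 100% = zero luminescence signal; higher percent means less beta-gal luminescence so fewer parasites; stock transfer was 50 nL into about 50 µL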
RanGTP-Impb inh: disruptors of Ran-importin-beta complex formation – biochemical, FRET, CFP-Ran, YFP-importin-beta, homogeneous, primary screen; cell-free CFP-Ran/YFP-importin-beta FRET ratio; inhibition, % (no concentration beside the values); actives 1.1% (n = 300,000);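 active = most replicates above 15%; inconclusive = exactly half above 15%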;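 also: 0% = DMSO wells and 100% = Ran loaded with GDP instead of GTP; wells of about 40 µL received 100 nL stock; the first replicate is given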
UCH37 DUB inh: inhibitors of human deubiquitinating enzyme UCH37. inhibition, % (no concentration beside the values). actives 0.33% (n = 330,000). purified proteasome/UCH37, Ub-AMC cleavage fluorescence. AID 588478;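 active = mean of two replicates above 20%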;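 also: 0% = compound-free wells with enzyme and 100% = wells lacking proteasome; stock transfer was 100 nL into about 20 µL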
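assay system = human UCH37 enzyme supplied as purified proteasome complex | amount = proteasome at 0.15 nM in the dispensed enzyme solution | schedule = 30 min compound-proteasome preincubation then 25 min substrate reaction, room temperature | measured by = fluorescence, ex 355 nm, em 460 nm | benchmarks = no-proteasome wells (full inhibition) and compound-free wells (no inhibition)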
LANA-H2A inh: blocks KSHV LANA binding to histone H2A/H2B. cell-free LANA-H2A/H2B peptide, fluorescence polarization. inhibition, % (test concentration not listed). Q9QR71. actives 0.6% (n = 320,000); in the data active = inhibition mostly above about 10%, no sharp cut-off; inactive = mostly below about 6.7%;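 also: stock transfer was 7.5 nL into about 10 µL; 0% = median of vehicle wells and 100% = median of positive control wells; one replicate is shown; the record names a cut of 25% in any replicate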
Target sequence (Q9QR71 whole entry, looked up): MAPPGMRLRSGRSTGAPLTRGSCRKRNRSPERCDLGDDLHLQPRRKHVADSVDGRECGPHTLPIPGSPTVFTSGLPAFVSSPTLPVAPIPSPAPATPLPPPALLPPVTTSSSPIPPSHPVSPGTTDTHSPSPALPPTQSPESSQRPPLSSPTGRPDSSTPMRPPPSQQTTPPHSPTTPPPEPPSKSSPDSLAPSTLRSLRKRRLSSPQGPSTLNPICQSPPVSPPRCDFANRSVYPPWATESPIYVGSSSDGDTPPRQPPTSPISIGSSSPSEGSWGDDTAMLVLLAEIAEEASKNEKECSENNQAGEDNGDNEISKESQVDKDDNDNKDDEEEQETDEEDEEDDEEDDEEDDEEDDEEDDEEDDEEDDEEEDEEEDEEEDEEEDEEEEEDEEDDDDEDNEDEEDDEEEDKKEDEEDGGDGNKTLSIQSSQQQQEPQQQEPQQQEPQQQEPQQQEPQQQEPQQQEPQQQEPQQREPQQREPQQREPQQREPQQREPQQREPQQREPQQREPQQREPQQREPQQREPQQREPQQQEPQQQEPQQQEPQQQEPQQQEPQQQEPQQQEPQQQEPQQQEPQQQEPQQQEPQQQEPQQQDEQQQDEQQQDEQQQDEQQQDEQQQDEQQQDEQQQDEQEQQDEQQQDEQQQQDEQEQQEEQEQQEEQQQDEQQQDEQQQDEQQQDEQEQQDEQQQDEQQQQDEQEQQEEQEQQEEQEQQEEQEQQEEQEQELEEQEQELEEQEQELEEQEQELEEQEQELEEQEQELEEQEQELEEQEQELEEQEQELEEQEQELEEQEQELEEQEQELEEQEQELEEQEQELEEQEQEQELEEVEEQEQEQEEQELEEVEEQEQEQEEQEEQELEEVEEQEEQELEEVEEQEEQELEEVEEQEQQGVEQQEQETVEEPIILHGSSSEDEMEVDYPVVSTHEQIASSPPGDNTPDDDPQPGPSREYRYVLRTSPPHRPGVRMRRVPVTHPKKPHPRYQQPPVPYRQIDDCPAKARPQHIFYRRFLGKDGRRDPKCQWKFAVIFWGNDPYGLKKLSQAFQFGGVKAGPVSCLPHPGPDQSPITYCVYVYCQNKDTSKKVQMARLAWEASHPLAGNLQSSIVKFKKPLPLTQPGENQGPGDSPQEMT
B2AR ag: activates human beta-2 adrenergic receptor causing internalization | P07550 | Am2.2-beta2AR cells, FAP receptor internalization, flow cytometry; reference of the scale not given here | response, % (no concentration beside the values) | actives 0.43% (n = 340,000) | AID 504454;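 active = response above a set limit, near 3 SD of response in nonfluorescent compounds, cut at about 42% in these data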;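 also: stock transfer was 100 nL into about 11 µL; a reference agonist was the positive control; negative values mostly stem from fluorescent compounds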
* marks the source's active call; other numbers are inactive results; i = inactive; ? = inconclusive; . = not tested or not shown. Not a hit list, and some 4.3% of all compounds hit somewhere here.

SMILES	Beta cell apopt	Calb FLC	Bfl-1 A1 inh	T cruzi repl	RanGTP-Impb inh	UCH37 DUB inh	LANA-H2A inh	B2AR ag
COC(=O)[C@@]1(Cc2ccc(F)cc2)[C@H]2c3cc(C(=O)N(C)C)n(CCc4ccc(OC)c(Br)c4)c3C[C@H]2CN1C(=O)c1ccccc1	-1	23	0.2	-3	2.9	1.7	4.5	12
CNc1ccc(C(=O)OCC(=O)NCc2ccc3c(c2)OCO3)cc1[N+](=O)[O-]	-6	.	-0.5	.	.	3.3	3.7	-5
CN(C(=O)c1ccc(S(=O)(=O)c2cccc(Cl)c2)c([N+](=O)[O-])c1)C1CCCCC1	-9	-2	0.2	-14	1.9	1.8	-2.1	7
COc1cccc(NC(=O)CN(C)CC(=O)Nc2ccc3c(c2)CCC3)c1	-1	-4	0.2	-2	-0.1	5.7	-5.8	4
CCCCn1c(=O)c2c(O)cc(=O)oc2c2ccccc21	1	27	-0.7	-23	2.1	-25	7.1	4
CCCCn1c(=O)c(-c2ccccc2)c(O)c2ccccc21	0	62	0.4	-4	2.9	2.9	-2.1	-7
Cc1ccc(OCCC(=O)OCC(=O)c2c(N)n(C)c(=O)n(C)c2=O)cc1	.	0	-0.2	0	1.4	1.1	2.5	-3
CCCCC(CC)CNS(=O)(=O)c1ccc2c(c1)CCN2C(=O)CCC(=O)O (stereo not given)	3	35	-0.4	-1	2.3	1.6	2.2	-4
Cc1ccccc1CS(=O)(=O)c1nnc([C@H](Cc2ccccc2)NC(=O)OC(C)(C)C)o1	93*	-8	0.9	-26	-1.7	1.1	-1.3	61*
CCOC(=O)c1[nH]c2c(c1C)C(=O)CC(c1ccc(OC)c(OC)c1)C2 (stereo not given)	1	19	0.7	7	1.3	-0.5	0.2	-5
COC(=O)c1ccc(NC(=O)CSc2nnc(-c3ccccc3Br)n2-c2ccccc2)cc1	.	-4	0.2	10	0.4	2.4	-1.5	-1
CCN(CC(=O)Nc1ccc(OC)cc1)C(=O)C1CCN(C(=O)c2ccc(Cl)cc2)CC1	-4	.	-0.7	.	.	0.4	-5.7	5
O=C(C[n+]1cc(-c2ccc(Br)cc2)n2c1CCCCC2)c1ccccc1	-8	?	-0.5	51	0.2	3.6	-3.6	1
O=C(N[C@@H](Cc1ccccc1)C(=O)N1CCC2(CC1)NCCc1[nH]cnc12)c1cccc(Br)c1	3	-2	-1.6	7	6.4	-0.2	-1.9	1
Cn1ncc2c(Nc3ccc(Cl)cc3)ncnc21	2	4	0.1	5	2.4	-2.8	-2.2	-3
COc1cc(S(=O)(=O)N2CCN3CCCC3C2)ccc1-n1cnnn1 (stereo not given)	-4	-5	0.1	12	-0.4	2.1	1.9	4
O=C(COC(=O)c1ccc(S(=O)(=O)NCc2ccco2)cc1)NCCC1=CCCCC1	-2	3	0.5	-5	0.7	4.6	1.3	-9
O=C(Nc1ccccc1)C1CCOC1=O (stereo not given)	-2	0	0.4	-21	0.2	-1.3	4.5	8
CO[C@H]1[C@@H]2C=CO[C@@H](O[C@H]3O[C@@H](CO)[C@H](O)[C@@H](O)[C@@H]3O)[C@@H]2[C@@]2(CO)O[C@@H]12	-6	.	-0.3	.	.	1.8	2.9	0
CC(C)OCCCNC(=O)C1CC(=O)N(CCc2ccc(F)cc2)C1 (stereo not given)	2	-5	-0.3	-14	-1.2	7.0	-2.6	0
COc1ccc(-c2csc(NC(=O)CCn3cnc4ccccc4c3=O)n2)cc1OC	19	1	-0.1	-16	-0.5	2.2	-0.2	9
Cc1ccc2c(c1)c1c3n2CCN(CC#N)C3CCC1 (stereo not given)	0	-21	0.7	13	-2.4	.	-4.7	5
COc1cc(/C=C/C(=O)Nc2nnc(C(C)(C)C)s2)cc(OC)c1OC	.	-17	0.7	1	4.7	-2.8	2.2	12
CCn1c(SCC(=O)Nc2ccc(OC)c(OC)c2)nnc1-c1cnccn1	0	4	0.0	-10	0.2	-2.6	6.4	-2
O=C(O)CCn1c(C2CCCCC2)nc2ccccc21	-3	-21	-1.3	-4	0.9	5.6	-7.1	-16
NS(=O)(=O)c1ccc(NC(=O)C2Cc3ccccc3CN2C(=O)c2ccco2)cc1 (stereo not given)	-5	1	-0.3	-23	-0.7	-2.0	-3.5	3
COc1ccc(CNC(=O)C2Cc3ccccc3CN2C(=O)c2ccco2)cc1 (stereo not given)	-6	28	0.4	-1	?	3.1	0.2	4
CCOc1ccc(/C=N/NC(=O)CC(=O)NCc2ccccc2)cc1	-2	-6	-0.2	-10	5.2	.	-0.6	-2
COC(=O)c1cc(OC)c(OC)cc1NC(=O)c1cc(-c2ccccc2)nc2ccccc12	46	3	?	8	1.0	-3.4	-1.6	-3
COCCCn1c(-c2cccs2)nc2nc3ccccc3nc21	3	0	-0.9	8	2.4	i	1.8	-19
COc1cccc(N2C(=O)N(c3ccccc3)C3CS(=O)(=O)CC32)c1 (stereo not given)	-11	1	0.0	-19	-3.4	4.4	-1.1	-3
COc1ccc(C(=O)NCCS(=O)(=O)NCC2CCCO2)cc1 (stereo not given)	2	-6	-0.7	-5	3.2	1.2	1.1	-3
C[C@]12C(=O)N(c3ccc(C(F)(F)F)cc3)C(=O)N1[C@@H]1c3ccccc3OC[C@@H]1[C@H]2c1ccccc1	10	1	0.7	4	-3.7	-174	9.2	7
CC1C(=O)N2CCCc3cc(S(=O)(=O)Nc4ccccc4C(N)=O)cc1c32 (stereo not given)	-8	10	-0.8	6	2.4	-13	4.9	-14
Cc1cc(COc2ccccc2OCCN2CCN(C)CC2)no1	-2	-6	0.4	-25	-1.6	3.0	-3.4	4
Cc1cccc(NC(=O)c2ccc(C3SCC(=O)N3CCc3ccccc3)cc2)c1 (stereo not given)	37	-4	-0.3	-3	8.1	3.7	-1.9	12
COc1cc(/C=N/Nc2ccccn2)ccc1OCC(C)C	1	5	-2.1	24	7.3	.	1.3	4
CCNC(=O)C(=O)NCC(c1ccc2c(c1)OCO2)N1CCOCC1 (stereo not given)	-4	-2	0.5	-3	?	2.3	3.6	10
O=C(CSc1nc2ccccc2[nH]1)N1CCN(c2ccc(F)cc2)CC1	0	2	-0.3	-3	?	1.9	0.1	-11
CCOCCCNC(=O)c1cc(=O)n(Cc2cccc(C)c2)c2ccccc12	-5	-14	-0.3	-8	0.8	-9.6	5.9	-4
CNC(=S)N(CCc1c(C)[nH]c2ccc(OC)cc12)Cc1ccco1	-10	-1	1.1	-18	-13	1.6	-3.2	20
CC(C)(C)OC(=O)N1CCC(c2cc(=O)n3[nH]cc(C(=O)Nc4ccc(F)c(Cl)c4)c3n2)CC1	0	16	?	7	-2.5	-3.4	-10	2
CS(=O)(=O)N(CC(=O)NCCC1=CCCCC1)c1cccc([N+](=O)[O-])c1	-2	0	-0.3	9	-2.5	1.1	-3.3	1
O=C(Nc1cccc(Cl)c1)Nc1ccc2nccnc2c1	-1	-4	-0.8	14	-1.5	-14	-4.9	38
Fc1ccccc1N1CCN(C(c2cccs2)c2nnnn2CCc2ccccc2)CC1 (stereo not given)	.	.	1.9	.	.	0.8	12	4
CCCc1cc(Nc2ccccc2)n2ncnc2n1	-2	31	1.3	4	4.7	3.5	5.2	4
Cc1ccn2c(NC3CCCC3)c(-c3ccsc3)nc2c1	-11	-11	-0.5	-2	4.5	-31	1.6	-8
O=C(NC(=O)c1ccccc1)NC1(C(F)(F)F)OCCO1	.	3	-1.7	-5	3.1	2.6	8.0	.
ON(Cc1c(F)cccc1Cl)Cc1c(F)cccc1Cl	.	-1	1.1	0	-1.1	2.7	-6.2	6
CC(C)NC(=O)Cn1cc(C#N)c2cc(Br)ccc21	5	-8	0.6	10	-2.4	0.0	2.6	-5
CCOc1cccc(NC(=O)Cn2nc(-c3ccc4c(c3)OCCO4)ccc2=O)c1	0	-10	0.1	-16	1.8	-6.7	-1.2	-1
O=C(NCc1ccco1)c1ccc2c(c1)N(Cc1ccccc1)C(=O)CS2=O (stereo not given)	-8	1	0.7	9	-2.7	0.3	1.7	4
Cc1cc(NC(=O)COC(=O)CNC(=O)c2cccs2)c([N+](=O)[O-])cc1C	-4	12	0.7	-24	2.6	3.0	-0.2	-1
Cc1ccc(OCCN2CCN(C(=O)CCC(=O)Nc3nnc(CC(C)C)s3)CC2)cc1	-3	15	-0.2	9	-0.7	-0.9	2.9	-2
O=C(NCc1ccc2c(c1)OCO2)C1CCCN1C(=O)Nc1cccc(F)c1 (stereo not given)	-5	-54	0.2	-16	-2.8	0.9	-6.7	-1
COc1cccc(CN(C)C(=O)c2cc(-c3ccc(OC)c(OC)c3)nc3ccccc23)c1	6	12	-0.5	3	1.9	-78	0.2	24
CC(C)Cn1c(=O)c2c(nc3n2CC(C)CN3Cc2ccccc2)n(C)c1=O (stereo not given)	4	1	-0.7	5	-0.8	4.3	3.6	-9
CN(C(=O)c1ccc(NC(=O)C2CCCN(C(=O)OC(C)(C)C)C2)cc1)C1CCC1 (stereo not given)	-1	.	-1.3	.	.	0.7	-0.9	-2
COc1cc(C(=O)OCC(=O)Nc2ccc3c(c2)OC(F)(F)O3)ccc1OCc1c(C)noc1C	-6	9	0.1	-10	-1.7	1.5	-1.1	4
O=C(CSc1nncc2ccccc12)Nc1ccc(C(=O)O)cc1	-2	0	-0.2	-20	6.3	5.0	-7.4	4
The listing continues:
SMILES	Beta cell apopt	Calb FLC	Bfl-1 A1 inh	T cruzi repl	RanGTP-Impb inh	UCH37 DUB inh	LANA-H2A inh	B2AR ag
CCn1c(COc2ccccc2OC)nnc1SCC#N	-9	3	-0.4	-11	-0.8	2.4	-3.1	-13
CCCn1nc(C(=O)OCc2nc(N)nc(Nc3ccccc3C)n2)c2ccccc2c1=O	-1	.	-0.7	.	.	0.5	-5.4	-11
O=c1ncn(-c2ccccc2F)c2ncccc12	-8	20	0.0	-5	-0.8	-0.5	-1.3	-2
CCOC(=O)c1sc(NC(=O)CCC(=O)O)nc1C	1	7	-0.9	-2	-1.8	1.1	2.0	-9
O=C(NCCCN1CCOCC1)c1cc2c(s1)-c1ccccc1OC2	-12	-2	0.4	19	1.4	i	2.2	4
CN(C)S(=O)(=O)N1CCN(c2ccc(Cl)cc2)CC1	1	-24	.	-8	-0.6	0.9	-2.1	0
Cc1cnc(C(=O)OCC(=O)Nc2ccc(Oc3ccccc3)cc2)cn1	1	0	0.4	-12	-3.9	-1.8	3.4	-21
COCC(=O)N(Cc1ccccc1)c1ccccn1	-3	6	-0.9	-6	3.5	1.5	3.4	3
O=C(COC(=O)CN1C(=O)c2ccccc2C1=O)NC1CCCCC1	-5	-5	-0.1	-1	1.0	.	-7.7	2
COc1ccc(C(=O)NCCS(=O)(=O)N2CCc3ccccc3C2)c(OC)c1	-3	1	-0.6	10	0.8	1.8	0.4	-2
Cc1cc(NC(=O)CN2C(=O)c3ccccc3S2(=O)=O)no1	.	6	0.2	-10	-2.8	0.7	9.8	-1
